# ClpP mod = qHTS Assay for Activators of ClpP; ATP-dependent Clp protease proteolytic subunit (Bacillus subtilis (strain 168)), P80244; purified B. subtilis ClpP, FRET peptide cleavage, 20 min; Potency, µM (titrated, usually from 57.5 µM), without a hit: at the top dose activity change, negative = active; 1.9% of 340,000 active; AID 651965, 2013; active = well fitted falling curve with a large enough effect; inconclusive = small, poorly fitted or top-dose-only effect; inactive = no such curve, though single readings can be large or run the other way; also: potency is read from the fitted curve at half-maximal effect; the source files actives as falling curves though it sought activators and does not explain the sign; nearly all actives have a fitted effect of over 65% in size; many hits overshoot -100%
# Target sequence (P80244 whole entry, looked up): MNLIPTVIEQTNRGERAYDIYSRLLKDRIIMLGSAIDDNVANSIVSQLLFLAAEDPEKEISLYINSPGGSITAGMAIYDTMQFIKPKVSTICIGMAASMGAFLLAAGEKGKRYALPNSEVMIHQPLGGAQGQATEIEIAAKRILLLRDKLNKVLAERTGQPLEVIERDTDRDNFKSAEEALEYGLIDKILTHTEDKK
#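 ClpP 10 microg/mL final, pH 8 Tris/KCl buffer with BSA, glycerol, Tween-20; compound pinned in; FRET-FV substrate; RT 20 min; Ex320/Em430; ΔFRET vs ADEP 5.8 microM, DMSO, no enzyme.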
# Sfp PPTase inh = Sfp phosphopantetheinyl transferase inhibition; Q9F4F7; AID 1490; Biochemical Sfp PPTase activity, qHTS; Potency, µM, without a hit: max response, negative = inhibition, most hits filed as inhibitors; 3.5% of 310,000 active; active = well fitted inhibition curve with a large enough effect; inconclusive = small, poorly fitted or top-dose-only effect, or another doubt; inactive = no such curve, though single readings can be large or run the other way;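 also: the enzyme is Sfp with the accession as filed and its product quenches rhodamine fluorescence; potency is read from the fitted curve at half-maximal effect; 0% = enzyme reaction without inhibitor and -100% = no enzyme wells; top concentration of the series not given in the record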
#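 With Hepes-Na pH 7.6 buffer containing 10 mM MgCl2, Sfp (15 nM) modified BHQ-2-YbbR (12.5 uM) using rhodamine-CoA (5 uM). Two reads 30 minutes apart at 525/598 nm yielded each well's rate.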
# gsp antagonist = antagonizes gsp, the McCune-Albright syndrome mutation. AID 624288. 0.4% of 340,000 active. Potency, µM (titrated, usually from 76.9 µM), for the others: top-dose activity change, negative = inhibition, most hits filed as inhibitors. gsp-mutant cells, cAMP HTRF, 30 min; control for the full effect not named in the record; active = falling curve of any shape with a large fitted effect; inconclusive = falling curve, mostly with a smaller effect; inactive = flat or rising curve; cell line not stated here;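 also: intracellular cAMP measured with PDE inhibitor Ro 20-1724 present during compound exposure; potency is read from the fitted curve at half-maximal effect; % is scaled to controls: 0 for no effect and ±100 for the full control effect; nearly all actives have a fitted effect of over 65% in size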
#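 HTRF cAMP read-out (cAMP-d2 plus anti-cAMP antibody-K in lysis buffer, 30 min RT). Before lysis, cells are exposed to compounds with […] for 30 min at 37C in DPBS containing Ca/Mg, BSA and Tween 20.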
# D2 PAM = potentiates the human D2 dopamine receptor allosterically; P14416; potentiation, % (test concentration not listed); DiscoveRx D2 beta-arrestin cells, luminescence, 90 min; 100% = 57 uM dopamine signal; AID 624464; 0.23% of 360,000 active; active = potentiation of 50% or more; inconclusive = 30% to 50%; inactive = 30% or less;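 also: compound concentration not given in the record; tested on top of an EC20 dose of dopamine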
# Target sequence (P14416 whole entry, looked up): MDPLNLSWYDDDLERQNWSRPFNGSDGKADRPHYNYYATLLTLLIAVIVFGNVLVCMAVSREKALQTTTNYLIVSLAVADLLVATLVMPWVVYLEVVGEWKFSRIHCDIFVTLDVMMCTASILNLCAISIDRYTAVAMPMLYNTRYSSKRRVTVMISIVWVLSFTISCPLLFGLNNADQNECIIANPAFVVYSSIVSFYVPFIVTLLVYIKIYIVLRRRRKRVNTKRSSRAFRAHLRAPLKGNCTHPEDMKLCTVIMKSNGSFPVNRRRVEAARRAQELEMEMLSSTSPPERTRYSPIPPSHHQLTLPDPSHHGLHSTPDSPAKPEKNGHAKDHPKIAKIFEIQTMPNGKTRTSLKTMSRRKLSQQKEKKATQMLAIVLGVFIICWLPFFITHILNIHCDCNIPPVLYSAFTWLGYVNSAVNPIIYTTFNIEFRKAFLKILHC
#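 PathHunter beta-arrestin assay in DiscoveRx D2 cells. Compounds were added with an EC20 of dopamine (50 nM final) for 90 min at 37 deg C. Luminescence was read 1 h after detection reagent, with 57 uM dopamine as the EC100 control.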
# Menin MLL FP FL = inhibitors of human menin-MLL interaction, wild-type MLL peptide; Fluorescence polarization, fluorescein-MLL peptide displacement from menin; AID 1766; 290,000 tested, under 10 active; FP activity change, % at 61.4 µM; inconclusive = falling polarisation curve, or a change in total fluorescence; inactive = total fluorescence flat and polarisation flat or rising; no compound was filed as active; the % refers to the polarisation; negative = inhibition;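 also: % of control where 0% means no effect; inhibitors lower the polarisation; unlabelled MLL peptide was the positive control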
# gsp ag = activates gsp, the McCune-Albright syndrome mutation. Potency, µM (top dose mostly 76.9 µM), for the others: at the top dose activation (cAMP increase), hits mostly activators. AID 624287. gsp mutant cells, cAMP HTRF, 30 min; control for the full effect not named in the record. 0.13% of 340,000 active; active = well fitted activation curve with a large enough effect; inconclusive = small, poorly fitted or top-dose-only effect, or another doubt; inactive = no such curve, though single readings can be large or run the other way; cell line not stated here;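 also: phosphodiesterase inhibitor Ro 20-1724 added with compounds to block cAMP breakdown; potency is read from the fitted curve at half-maximal effect; nearly all actives have a fitted effect of over 60% in size; about a fifth of the inactives were tested at one dose only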
#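 Cells in DMEM/10% FBS with G418 were pretreated with compounds in DMSO plus […] (300 uM stock) for 30 min at 37C. cAMP was measured by HTRF (cAMP-d2 plus anti-cAMP antibody-K) after 30 min at room temperature.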
# TRPV1 potentiator = enhances activation of the human vanilloid receptor TRPV1; AID 540277; Q8NER1; potentiation, % at 8.33 µM; 0.02% of 320,000 active; TRPV1-expressing cells, Fluo-8 calcium influx, capsaicin EC20 potentiation; host cell line not named in the record; control for the full effect not named in the record; active means potentiation above 80%; inconclusive means 30% to 80%; inactive means below 30%; also: 0% is about no effect
#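 Fluo-8 calcium influx in TRPV1-expressing cells, kinetic read (ex 480/em 520 nm). Compound added and read 3 min for agonist activity, followed by capsaicin at EC20 final and 2 min further read for enhancement.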
# Starred values were filed as active, the others as inactive; ? = inconclusive; . = no result given; [ ] = remark or other dose. Hits appear at their usual frequency; any-hit rate near 5.1%.
molecule,ClpP mod,Sfp PPTase inh,gsp antagonist,D2 PAM,Menin MLL FP FL,gsp ag,TRPV1 potentiator
Cc1occc1C(=O)NC1CCCCCCC1,1.1%,7%,0%,-10,2.6,-3%[15.4 µM],-14
COc1cc2c(-c3ccccc3)c(C)oc2cc1/C=N/NC(N)=S,-26%,.,8%,3,.,9%,.
COc1cc2c(cc1OC)C(c1ccccc1)N(C(=O)CCl)CC2 (stereo unspecified),0.0%,2%,?,-3,0.5,5%,3
Cc1ccc(-c2cc(C(=O)OCC(=O)N(C)C3CCS(=O)(=O)C3)c3ccccc3n2)c(C)c1 (stereo unspecified),-0.9%,3%,-6%,-15,6.2,10%[15.4 µM],-10
O=C(Nc1ccc(S(=O)(=O)Nc2ncccn2)cc1)c1ccc(Cl)c([N+](=O)[O-])c1,-5.6%,3%,-34%,-10,-3.1,24%[15.4 µM],-1
CCC1(c2ccc(OC)cc2)NC(=O)N(CC(=O)NC2CCCCC2C)C1=O (stereo unspecified),1.0%,.,16%,-2,.,23%,-6
CCOC(=O)c1sc(=S)n(-c2ccc(Cl)cc2)c1SC,-1.1%,-11%,-11%,0,7.0,15%,2
O=C1C2C(C(=O)N1/N=C/c1cc(Br)cc([N+](=O)[O-])c1O)C1C=CC2C12CC2 (stereo unspecified),-26%,16%,-27%,-27,?,-47%[inhibitor],-3
COc1cccc(N2CCN(S(=O)(=O)c3ccc(CN4C(=O)c5cccnc5C4=O)cc3)CC2)c1,-0.9%,14%,11%,-1,.,26%,18
Cc1ccc(NC2=NCC(=O)N2C2CCCC2)c(C)c1,-1.9%,4%,4%,-3,-2.8,-36%,2
COc1ccccc1OCC(=O)N1CCCCCCC1,.,-10%,8%,-1,-5.5,-12%,-1
COc1ccccc1C(=O)N=C1NC(=O)CC2C(=O)NCCN12 (stereo unspecified),-6.2%,17%,10%,-13,-7.6,10%,10
Cc1ccsc1/C=N/NC(=S)NCCc1ccccc1,1.0%,-4%,10%,-6,-2.9,13%[15.4 µM],?
Clc1ccc(C(c2nnnn2CCc2ccccc2)N2CCSCC2)cc1 (stereo unspecified),6.2%,14%,2%,-18,3.8,14%,0
CC(=O)N(C(C)=O)c1ncn(C)c1S(=O)(=O)Nc1ccccc1,-0.9%,.,2%,-20,.,15%[15.4 µM],.
CNS(=O)(=O)c1cccc(C(=O)NCC2CCCCC2)c1,0.0%,10%,-1%,-4,0.1,13%,6
CCOc1cc(/C=C2/NC(=O)N(CC(=O)OC)C2=O)ccc1O,.,2%,.,22,1.9,-1%[15.4 µM],11
Oc1ccc(N=Nc2cccc(C(F)(F)F)c2)cc1C=Nc1ccc(N2CCOCC2)cc1,2.2%,1%,-3%,-35,2.9,16%[15.4 µM],-26
COc1ccc2c(c1)CCc1cnc(N)nc1-2,.,6%,-16%,2,2.1,14%[15.4 µM],24
CC1CCN(C(=O)CN(c2ccc3c(c2)OCO3)S(C)(=O)=O)CC1,-0.7%,2%,7%,-1,0.5,-9%,2

# Compound profiles, as listed above. Order of screens: ClpP mod | Sfp PPTase inh | gsp antagonist | D2 PAM | Menin MLL FP FL | gsp ag | TRPV1 potentiator
# `COc1ccccc1OCC(=O)N1CCCCCCC1` in the list: . | -10% | 8% | -1 | -5.5 | -12% | -1
# `COc1ccc2c(c1)CCc1cnc(N)nc1-2` in the list: . | 6% | -16% | 2 | 2.1 | 14%[15.4 µM] | 24

# New compounds follow
SMILES | ClpP mod | Sfp PPTase inh | gsp antagonist | D2 PAM | Menin MLL FP FL | gsp ag | TRPV1 potentiator
O=C(Nc1nc2ccccc2s1)c1ccc2c(c1)OCO2 | -15% | 16% | -21% | -37 | -0.9 | -39%[inhibitor] | 5
Cc1cc2ncn(C(=O)N3CCCCC3)c2cc1C | 0.0% | 18% | -11% | -14 | -1.3 | -39%[inhibitor] | -2
Cn1cc(CN2CCN(Cc3ccccc3)C(CCO)C2)c(-c2ccccc2)n1 (stereo unspecified) | 3.3% | 2% | 6% | -18 | -3.2 | -3% | -4
COc1cc2c(C#CCCO)c(-c3ccc(C#N)cc3)oc(=O)c2cc1OC | 3.4% | . | -6% | 0 | . | . | 7
NC(=O)CNC(=O)[C@@H]1CC2(CC(c3cccc([N+](=O)[O-])c3)=NO2)CN1C(=O)c1ccccc1 (stereo partly specified) | -0.1% | 8% | 5% | -6 | 0.5 | . | -13
O=C(/C=C/c1cccc([N+](=O)[O-])c1)Nc1cccc(NC(=O)c2cccs2)c1 | -1.1% | 31%[activator] | -25% | 6 | . | 52% | 18
COc1ccc2[nH]c3c(c2c1)CCN1C(=O)N([C@@H](C)C(=O)NCC2CCCO2)C(=O)[C@]31C (stereo partly specified) | -4.6% | -2% | -3% | -23 | -0.8 | . | -8
N=C1SC(c2ccccc2)C(=O)N1c1ncc(Cc2ccccc2)s1 (stereo unspecified) | -2.9% | -2% | 9% | 1 | 8.2 | ? | 8
COc1ccc(CC(=O)NNC(=O)COc2ccc(C)cc2)cc1S(=O)(=O)N1CCOCC1 | . | . | 5% | -1 | . | -20%[15.4 µM] | -4
COc1cc(C(=O)NC(=S)Nc2nccs2)cc(OC)c1OC | . | -5% | -7% | -3 | -3.8 | -10% | 9

# 3 compounds from above, arranged by SMILES length, low to high:
SMILES | ClpP mod | Sfp PPTase inh | gsp antagonist | D2 PAM | Menin MLL FP FL | gsp ag | TRPV1 potentiator
COc1cc(C(=O)NC(=S)Nc2nccs2)cc(OC)c1OC | . | -5% | -7% | -3 | -3.8 | -10% | 9
COc1cc2c(C#CCCO)c(-c3ccc(C#N)cc3)oc(=O)c2cc1OC | 3.4% | . | -6% | 0 | . | . | 7
COc1ccc2[nH]c3c(c2c1)CCN1C(=O)N([C@@H](C)C(=O)NCC2CCCO2)C(=O)[C@]31C (stereo partly specified) | -4.6% | -2% | -3% | -23 | -0.8 | . | -8

# (next part)
SMILES | ClpP mod | Sfp PPTase inh | gsp antagonist | D2 PAM | Menin MLL FP FL | gsp ag | TRPV1 potentiator
CCN(c1ccccc1)S(=O)(=O)c1ccc2ccccc2c1 | 0.1% | -7% | -3% | -5 | -0.2 | 2%[15.4 µM] | -3
Cc1cccc(C(C)C)c1NC(=O)CN1C(=O)NC2(CCc3ccccc32)C1=O (stereo unspecified) | 1.2% | . | -19% | -11 | . | -5%[15.4 µM] | 2
NC(=O)c1ccccc1NC(=O)/C=C/c1ccc(Cl)cc1 | 16% | -1% | -22% | 1 | 3.6 | -43%[inhibitor] | -11
COc1cc(CCc2ccc3c(c2)OCO3)oc(=O)c1 | -0.4% | 4% | -4% | -1 | 1.2 | -92% | -11
O=C(CCCC(=O)N1CCN(c2ccccc2F)CC1)N1CCN(c2ccccc2F)CC1 | 1.0% | 20% | 8% | -7 | 0.4 | ? | 6
Cc1cc(C)n(C(=O)c2cc(F)c(F)cc2C)n1 | 1.9% | 17% | 18% | -4 | -2.5 | 9% | 1
CC1CCC(NC(=O)c2cccn2C)CC1 (stereo unspecified) | 0.9% | . | 2% | -6 | . | -3% | .
Cc1nn(-c2ccccc2)c(Cl)c1C(=O)NCC(C)c1ccccc1 (stereo unspecified) | . | 19% | -12% | -3 | 0.8 | -12%[15.4 µM] | -7
Cc1cc(C)n2c(SC(C)C(=O)NC3(C#N)CCCCC3)nnc2n1 (stereo unspecified) | -5.8% | . | 15% | -4 | . | 31% | 6
CCOC(=O)c1nn(-c2ccccc2)c(-c2ccccc2)c1C(=O)c1ccccc1 | 0.3% | -1% | -3% | -7 | 2.7 | -24% | .
CCCn1cnc2c(SCc3ccccn3)nc(N)nc21 | . | . | 3% | 1 | . | ? | .
CCC(=O)Nn1c(C2CCC2)nc2ccccc2c1=O | . | 2% | 14% | 2 | -5.3 | 0% | ?
O=C(CSc1n[nH]c(-c2ccccc2Cl)n1)NC1CCCCC1 | . | 3% | -4% | 2 | -22 | ? | -11
O=C(NC1CC1)C1CCN(C(=O)c2ccc(Cl)cc2Cl)CC1 | . | 20% | -3% | -10 | -3.1 | 3% | -13
CCc1c(C(=O)Nc2ccc(OC)c(Cl)c2)[nH]c(C)c1C(C)=O | 2.3% | -16% | -3% | -18 | 0.0 | -2% | -3
COc1ccc(C(=O)n2cc(C(=O)c3cc(C)ccc3O)cn2)cc1OC | 96% | 6% | 4% | -21 | 2.8 | 2% | 9
COCCCNC(=O)CS(=O)Cc1nc(-c2cccc(OC)c2)oc1C (stereo unspecified) | -0.2% | -10% | 9% | -8 | 3.5 | 2% | 9
Cc1cccc(C)c1NS(=O)(=O)c1c(C)[nH]c(=O)[nH]c1=O | -0.1% | 19% | 6% | 0 | 1.1 | -49%[inhibitor] | 3
Cc1c(Cl)cccc1NC(=S)N(CCN(C)C)C(C)c1ccccn1 (stereo unspecified) | . | -22% | -7% | -11 | 0.7 | -2%[15.4 µM] | -11
CCN(CC)S(=O)(=O)c1ccc2c(c1)nc(SCC(=O)NCC1CCCO1)n2CC (stereo unspecified) | -1.8% | . | 0% | -4 | . | -5% | 4
CN(C)c1ccc(CNc2nc(-c3ccccc3)nn2S(C)(=O)=O)cc1 | . | 7% | -3% | -4 | 1.6 | 15% | 0
Cc1ccc2nc(SCC(=O)NC3CC3)[nH]c2c1 | -1.0% | -3% | 6% | -11 | . | -23% | -14
COCCC(=O)N1CCC(Oc2ccc(C(=O)N3CCCCCC3)cc2)CC1 | 1.3% | 21% | 8% | -5 | 0.3 | 6% | -1
CC(=O)CSc1nc(CCc2ccccc2)c(C#N)c(=O)[nH]1 | . | . | -16% | -3 | . | 7% | .
Cc1ccsc1/C=N/NC(=O)c1ccc2ccccc2c1 | -15% | 10% | ? | -17 | -0.9 | -27% | -18
CCOC(=O)N1CCN(C2=CC(=O)OC23CCCCC3)CC1 | 1.1% | -9% | 4% | -11 | 2.0 | 3% | -10
CC(=O)Nc1ccc(S(=O)(=O)NCCc2cc3c(C)ccc(C)c3[nH]c2=O)cc1 | -19% | 2% | 8% | -7 | -0.6 | ? | 0
CCCCn1c(=O)n(CC(=O)Nc2ccc(OC)c(Cl)c2)c(=O)c2c1nc(CO)n2CCC | -5.7% | 5% | -6% | 6 | -0.1 | 12% | 19

# Screens as filed in PubChem BioAssay.
